Rce1 inhib: yeast Ras-converting enzyme inhibition | Q03530 | calls only | yeast membranes, quenched prenylated peptide cleavage fluorescence | 290,000 compounds, 0.27% hits;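 active = fall in fluorescence gain of 50% or more versus controls, with final raw signal at or below 3038400; inconclusive = same 50% fall but final raw signal above 3038400; inactive = fall in fluorescence gain under 50%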;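 also: plate controls were neutral control wells for no effect and wells lacking membranes for full effect; tested at 10 µM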
Target sequence (Q03530 whole entry, looked up): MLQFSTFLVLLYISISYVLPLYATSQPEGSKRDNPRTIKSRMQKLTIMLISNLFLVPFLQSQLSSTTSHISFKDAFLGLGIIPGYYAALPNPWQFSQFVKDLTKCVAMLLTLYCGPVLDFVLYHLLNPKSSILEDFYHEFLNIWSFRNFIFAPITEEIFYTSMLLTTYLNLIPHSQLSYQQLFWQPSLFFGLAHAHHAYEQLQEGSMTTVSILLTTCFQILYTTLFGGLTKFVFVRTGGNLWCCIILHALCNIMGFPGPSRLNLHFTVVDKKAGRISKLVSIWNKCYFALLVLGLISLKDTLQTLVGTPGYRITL
HIV Env fusion: blocks HIV Env-driven cell-cell fusion; 360,000 compounds, 1.1% hits; inhibition, % at 12.3 µM; AID 651610; HeLa-JRFL Env/CEM21 cell fusion, luciferase;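 active = mean replicate inhibition score of at least 50 and every replicate individually at or above 50; inconclusive = only one of the two criteria met; inactive = mean below 50 and not all replicates reaching 50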;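 also: 0% = plate neutral controls and 100% = maraviroc near 300 nM; one replicate is shown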
MT1-MMP act inh: blocks activation of human MT1-MMP | P50281 | HT1080 RFP-PRO-GFP cells, GFP/RFP ratio fluorescence, overnight; percent of plate control window, DMSO zero | GFP/RFP ratio change, % at 20 µM | 360,000 compounds, 0.061% hits | AID 651647;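 active = GFP/RFP ratio change of at least 30% with cell ATP level not reduced by more than half and red fluorescence within 50% of control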; also: strong numbers were not always called active
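Material – HT1080 RFP-PRO-GFP cells · Control set – DMSO wells and RFP-L50D-GFP cells · Incubation – overnight cell settling, then overnight compound exposure, 37 °C, 5% CO2 · Compound dosing – single-point 20 µM compound, 1% DMSO · Read-out – GFP/RFP fluorescence ratio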
eIF4H inh: inhibitors of RNA binding by human eIF4H; Q15056; eIF4H fluorescence polarization binding assay; inhibition, % at 35 µM; 290,000 compounds, 0.94% hits; AID 2012;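 active = 50% or more with normal probe brightness, or confirmed in later tests; inconclusive = above 50% with abnormal brightness, or retests that disagree; inactive = below 50% or failed in later tests; about a fifth of its hits are not listed in these tables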;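 also: calls also rest on retests at 20 µM and on dose response follow-up; 0% = protein and probe with vehicle and 100% = probe without protein; strong numbers were not always called active; many hits fall short of the cut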
PABP polyA inh: PABP-poly(A) binding inhibition. PABP-poly(A) RNA binding, fluorescence polarization. AID 2014. inhibition, % at 35 µM. 290,000 compounds, 1% hits;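 active = 50% or more with normal probe brightness, or confirmed in later tests; inconclusive = above 50% with abnormal brightness, or retests that disagree; inactive = below 50% or failed in later tests; about a fifth of its hits are not listed in these tables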;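 also: calls also rest on retests at 20 µM and on dose response follow-up; controls were probe without protein and protein plus probe with vehicle; some compounds called inactive have numbers as strong as hits; many hits fall short of the cut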
Target sequence (P11940 whole entry, looked up): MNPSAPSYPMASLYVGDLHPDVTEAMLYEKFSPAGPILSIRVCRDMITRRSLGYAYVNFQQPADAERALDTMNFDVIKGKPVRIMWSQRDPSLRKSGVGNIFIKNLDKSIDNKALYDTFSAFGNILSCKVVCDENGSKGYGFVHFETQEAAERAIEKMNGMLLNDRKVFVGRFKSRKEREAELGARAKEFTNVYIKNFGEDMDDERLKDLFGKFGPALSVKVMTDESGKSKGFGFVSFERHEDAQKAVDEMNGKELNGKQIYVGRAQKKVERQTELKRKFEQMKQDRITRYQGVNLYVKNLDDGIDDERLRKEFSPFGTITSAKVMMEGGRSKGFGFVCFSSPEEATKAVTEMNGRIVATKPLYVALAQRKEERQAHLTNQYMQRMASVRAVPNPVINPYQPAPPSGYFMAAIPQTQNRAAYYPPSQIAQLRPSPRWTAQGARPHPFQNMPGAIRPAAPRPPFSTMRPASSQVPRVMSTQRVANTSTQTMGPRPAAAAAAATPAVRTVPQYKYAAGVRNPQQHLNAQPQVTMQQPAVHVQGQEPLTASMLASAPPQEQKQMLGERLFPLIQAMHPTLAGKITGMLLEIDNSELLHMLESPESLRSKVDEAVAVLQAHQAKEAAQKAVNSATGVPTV
Yeast UUG start: alters start codon recognition fidelity in yeast. S. cerevisiae UUG-firefly luciferase reporter, luminescence/redox ratio. activity score, % at 18.7 µM. 350,000 compounds, 0.13% hits;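 active = replicate mean at a twofold rise or more, about +100% in these data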;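 also: firefly luciferase made from a UUG start codon reports start codon fidelity; reporter light over untreated wells divided by growth signal over untreated wells; some hits fall short of that in this replicate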
CSC inhib: blocks cancer stem cells. inhibition, % at 7.5 µM. 300,000 compounds, 1.1% hits. cancer stem cell-like cells viability, luminescence. AID 2717;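 active = mean at 75% or more and at least half the replicates too; inconclusive = mean and replicates disagree; tested in HMLE shEcad cells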;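 also: 0% = median of negative and 100% = median of positive control wells; the first replicate is given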
eIF4H inh retest: second read-out of eIF4H inh, no call of its own (marks repeat the call); inhibition, %; compound at 20 µM; confirmation average;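 mean of two retest wells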
PABP polyA inh retest: also measured in PABP polyA inh; calls as there; inhibition, %; compound at 20 µM; confirmation repeats;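 mean of two retest wells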
MT1-MMP act inh RFP: recorded beside MT1-MMP act inh, whose call it bears; RFP signal change, %; measured here: RFP expression control read;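 0 = vehicle wells; hits needed this value within 50% of zero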
Starred values were filed as active, the others as inactive; i = inactive; ? = inconclusive; / = not tested or not shown. Only part of the results is shown. The share of hits here may be higher or lower than overall.

SMILES | Rce1 inhib | HIV Env fusion | MT1-MMP act inh | MT1-MMP act inh RFP | eIF4H inh | PABP polyA inh | Yeast UUG start | CSC inhib | others
Cc1no[n+]([O-])c1COc1ccc(/C=C2\NC(=S)NC2=O)cc1 | i | / | / | / | 56* | 50* | / | -4
CN1CCN(c2nc(-c3ccc(Cl)cc3)cc(=O)[nH]2)CC1 | i | 20 | -3 | -4 | -5 | -5 | -18 | -5
COc1cc(C(=O)NCCC(=O)NCc2c(F)cc(F)cc2F)cc(OC)c1OC | i | 4 | -1 | 3 | / | / | -6 | -3
O=C(Cn1cc([N+](=O)[O-])cn1)Nc1nc2ccccc2s1 | i | / | 12 | 2 | -6 | -10 | / | 2
COc1cccc(NC(=O)CN(C2=NC3CS(=O)(=O)CC3S2)c2cccc(C)c2)c1 (centres undefined) | i | 8 | 1 | 3 | 4 | 5 | -10 | -3
Cn1nc(-c2ccccc2)c(C(O)c2ccc(Cl)cc2)c1Cl (centres undefined) | i | 6 | 8 | -3 | 1 | -1 | -6 | 16
CCC(C)(C(=O)NC1CCCCC1)N(Cc1ccco1)C(=O)c1ccccn1 (centres undefined) | i | -81 | -1 | 7 | -11 | -6 | -10 | -10
CCC(=O)N1CCC(C)(C(=O)NCc2ccc(F)cc2)C1 (centres undefined) | / | -9 | 5 | 8 | / | / | -4 | /
O=[N+]([O-])c1ccc(/C=C/C2=NN(c3ccccc3)C(c3ccco3)C2)o1 (centres undefined) | i | -13 | -32 | 63 | 42 | 0 | / | /
NC(=O)[C@@H]1CCCN1Cc1nc(Cc2cccc(C(F)(F)F)c2)no1 | i | 0 | 7 | 5 | 2 | -5 | -5 | -7
Cc1ccccc1C(=O)N1CCN(c2nc(N3CCOCC3)nc(N3CCOCC3)n2)CC1 | i | / | 0 | -3 | 1 | 54 | -14 | -3 | eIF4H inh retest=11;PABP polyA inh retest=34
O=C(Nc1ccc(Oc2ccccc2)cc1)N[C@@H](Cc1ccccc1)C(=O)O | i | -1 | 10 | 5 | 3 | 15 | -18 | -3
O=C(CCNC(=O)c1ccccc1Cl)Nc1nc2ccccc2[nH]1 | / | -12 | -1 | 1 | / | / | -8 | -12
Cc1ccc2cc(CCNC(=O)c3ccco3)c(=O)[nH]c2c1C | i | -27 | -1 | 2 | ? | 124* | -18 | -13 | PABP polyA inh retest=62*
O=C(Nc1nnc(-c2ccccc2)o1)Nc1ccc(F)cc1F | i | 8 | -2 | -1 | -7 | -1 | / | /

The closing 2 compounds of the part above lead into the next:
SMILES | Rce1 inhib | HIV Env fusion | MT1-MMP act inh | MT1-MMP act inh RFP | eIF4H inh | PABP polyA inh | Yeast UUG start | CSC inhib | others
Cc1ccc2cc(CCNC(=O)c3ccco3)c(=O)[nH]c2c1C | i | -27 | -1 | 2 | ? | 124* | -18 | -13 | PABP polyA inh retest=62*
O=C(Nc1nnc(-c2ccccc2)o1)Nc1ccc(F)cc1F | i | 8 | -2 | -1 | -7 | -1 | / | /
O=C(Nc1nccs1)c1nc(-c2ccccc2)n(-c2ccccc2)n1 | i | -43 | 5 | 0 | -8 | -1 | -16 | -10
CC(CCO)Nc1nc2c([nH]1)c(=O)n(C)c(=O)n2C (centres undefined) | i | -11 | 0 | 2 | 10 | -3 | -18 | -22
O=C(ONC(=O)C1C2C=CC(C2)C1C(=O)NOC(=O)c1ccccc1)c1ccccc1 (centres undefined) | / | -11 | 5 | 3 | / | / | -5 | /
NCCCn1cnc2ccccc21 | i | 5 | -2 | 3 | -4 | -2 | / | 1
CCN(CC(=O)Nc1cc(Cl)ccc1C)C(=O)C1COc2ccccc2O1 (centres undefined) | / | / | 6 | -4 | / | / | 27 | -6
O=C1CN(C(=O)/C=C/c2ccc(Br)cc2)CCN1 | i | -4 | 1 | 3 | -1 | 0 | -19 | 2
N#Cc1nc(Cc2ccccc2)oc1N1CCN(c2cccc(Cl)c2)CC1 | i | / | -2 | -1 | -3 | -4 | -1 | 7
c1cncc(-c2nc(NCc3ccco3)c3ccccc3n2)c1 | i | 14 | -6 | -2 | -7 | 0 | -13 | 5
COc1ccccc1Cc1c(-c2ccc(Cl)cc2)nc2c(C)cc(Br)cn12 | / | i | -11 | -8 | / | / | 6 | /
O=c1oc2cc(O)c(Cl)cc2c2ccccc12 | i | -25 | -2 | 1 | -2 | 7 | -11 | -12
COc1cc(C)c(CNc2ccc(OC)c(OC)c2)cc1C | i | / | / | / | 63* | 81* | / | 2
Cn1cc(S(=O)(=O)N2CCC(Cc3ccccc3)CC2)c(=O)n(C)c1=O | i | 10 | 1 | -2 | -3 | -2 | 10 | -11
N/C(=N\NC(=O)c1ccc(Cl)cc1)c1cnccn1 | i | -5 | 1 | 5 | -2 | 4 | / | 8
CCn1cc(C(=O)NCc2ccc3c(c2)OCO3)c2cc(OC)c(OC)cc2c1=O | i | 24 | 7 | 2 | 7 | 0 | -9 | -3
CCNc1cccc2c1C(=O)N(C)C2=O | i | / | -60 | 3 | ? | ? | 2 | 9

Fetched by compound from the list above, 6 records:
SMILES | Rce1 inhib | HIV Env fusion | MT1-MMP act inh | MT1-MMP act inh RFP | eIF4H inh | PABP polyA inh | Yeast UUG start | CSC inhib | others
COc1cc(C)c(CNc2ccc(OC)c(OC)c2)cc1C | i | / | / | / | 63* | 81* | / | 2
O=C1CN(C(=O)/C=C/c2ccc(Br)cc2)CCN1 | i | -4 | 1 | 3 | -1 | 0 | -19 | 2
O=C(ONC(=O)C1C2C=CC(C2)C1C(=O)NOC(=O)c1ccccc1)c1ccccc1 (centres undefined) | / | -11 | 5 | 3 | / | / | -5 | /
O=c1oc2cc(O)c(Cl)cc2c2ccccc12 | i | -25 | -2 | 1 | -2 | 7 | -11 | -12
O=C(Nc1nccs1)c1nc(-c2ccccc2)n(-c2ccccc2)n1 | i | -43 | 5 | 0 | -8 | -1 | -16 | -10
Cn1cc(S(=O)(=O)N2CCC(Cc3ccccc3)CC2)c(=O)n(C)c1=O | i | 10 | 1 | -2 | -3 | -2 | 10 | -11

Remaining list, next part:
SMILES | Rce1 inhib | HIV Env fusion | MT1-MMP act inh | MT1-MMP act inh RFP | eIF4H inh | PABP polyA inh | Yeast UUG start | CSC inhib | others
CCOCCCNC(=O)c1cn(C)c(=O)c2cc(OC)c(OC)cc12 | i | -14 | -3 | 1 | -11 | -2 | -15 | -7
COC(=O)N/C(C)=C1/NC(=O)c2ccccc2C(c2ccccc2)N1 (centres undefined) | i | / | 0 | 0 | -15 | -6 | -8 | 7
COc1cccc(CNC(=O)C2CCN(S(=O)(=O)c3ccc4c(c3)C(C)(C)C(=O)N4C)CC2)c1 | / | -11 | 5 | -1 | / | / | -7 | /
NC(=S)N(c1ccccc1)c1ccccc1 | i | -3 | 2 | 4 | 4 | 4 | -14 | 9
Cc1nc(C(=O)NNC(=O)c2ccc(Cl)cc2)cs1 | i | -7 | 1 | -1 | -3 | -4 | -8 | 8
CCCn1c(SCC(=O)Nc2cccc(S(=O)(=O)NC3=NCCCCC3)c2)nc2ccccc2c1=O | i | -13 | -4 | -9 | -2 | -13 | 8 | 5
Cc1cc(NC(=O)Cn2cnc3c2c(=O)n(C)c(=O)n3C)n(-c2ccccc2)n1 | i | / | -2 | 2 | -9 | -2 | -23 | -7
OC(c1ccc(F)cc1)c1nc(-c2ccccc2)cs1 (centres undefined) | / | i | 2 | 2 | / | / | 6 | /
Cc1cccc(NC(=O)c2cccc(S(=O)(=O)Nc3ccccc3C(=O)O)c2)c1 | i | 0 | 0 | 4 | -4 | 13 | -22 | -2
N#Cc1ccc(C23CC4(C2)[C@H](CN(Cc2ccc(C(F)(F)F)cc2)[C@@H]4c2ccccc2)C3c2ccccc2)cc1 (some centres undefined) | i | -39 | -1 | -3 | -8 | -6 | -22 | 20
Cc1cc2occ(CC(=O)N(C)CC(=O)Nc3c(C)cccc3C)c2cc1C | i | 8 | -2 | 0 | / | / | -8 | -9
CCC(=O)Nc1ccc(S(=O)(=O)NCC2CCCO2)cc1 (centres undefined) | i | 10 | 4 | -4 | -5 | -8 | -10 | 3
CN(Cc1ccc(Cl)cc1)C(=O)c1ccc(S(=O)(=O)NCc2ccco2)cc1 | / | -9 | -2 | -9 | / | / | -10 | /
CCCCN1C(=O)C(CC(=O)NCc2ccco2)CC(C(=O)N(C)C)=C1C (centres undefined) | / | -21 | -1 | 0 | / | / | 4 | /
O=C(CCCO)CCCCCCCCC[C@H]1N[C@H](CO)[C@@H](O)[C@@H]1O | i | 10 | 0 | 3 | 3 | 3 | 1 | -11
CCOc1ccc(C(=O)Nc2cccc(-n3cnnn3)c2)cc1OCC | i | 12 | 3 | -1 | 8 | 15 | -9 | 7
Cc1cc2[nH]cnc2c([N+](=O)[O-])c1C | i | -8 | -4 | 2 | 3 | 2 | / | 13
CC1CC(CCN)(c2ccccc2)C(C)CN1C (centres undefined) | i | -5 | 0 | 6 | 6 | 14 | / | -7
CC(=O)Nc1cc(-c2cccc(N)c2)cn2c(-c3ccc(C(C)=O)cc3)cnc12 | / | -11 | 6 | 2 | / | / | -8 | /
CCCNC(=O)C1(C)CCN(C(=O)/C=C/c2ccccc2)C1 (centres undefined) | / | i | 4 | 4 | / | / | -20 | /
O=C(O)c1cccc(NC(=O)c2ccc(Cl)c(S(=O)(=O)N3CCCCCC3)c2)c1 | i | -2 | 1 | 1 | -6 | 0 | / | -6
O=C(NCCCN1CCN(c2ccccc2F)CC1)C1CCC(=O)N1C1CCCCC1 (centres undefined) | i | / | 1 | 0 | 8 | -3 | -15 | 4
CCN1CCN(C(=O)C(C)Nc2ccc(OC)cc2OC)CC1 (centres undefined) | i | -4 | 7 | 15 | 48 | 7 | -4 | -24
O=C(Nc1cccc(C(=O)O)c1)/C(=C/c1ccccc1)NC(=O)c1cccc(Br)c1 | i | 0 | -7 | 1 | / | / | -13 | /
O=C(Nc1ccncc1)c1ccc(NS(=O)(=O)c2ccc3[nH]c(=O)[nH]c3c2)cc1 | i | -8 | 0 | 1 | 9 | -10 | -8 | 5
O=C1C2C3C=CC(C2C(=O)N1C1CCCCC1)C1C(=O)N(C2CCCCC2)C(=O)C31 (centres undefined) | i | / | 1 | -7 | -9 | 3 | -2 | 2
COC(=O)c1cc(C(=O)NCC2CCCCC2)cc([N+](=O)[O-])c1 | i | -3 | 2 | 0 | -6 | 2 | -6 | -5
CCNc1nc(OC)nc(Oc2ccc(=O)n(-c3ccccc3)n2)n1 | i | / | 1 | 6 | 0 | -3 | -14 | /
COc1ccc(CCNS(=O)(=O)c2cn(C)nc2C)cc1OC | i | -10 | 0 | 2 | -10 | -2 | -3 | 4
Cc1ccc(C)c(NC(=S)NNC(=O)c2csc(C(C)C)c2)c1 | i | -45 | 1 | -1 | 13* | 66* | -24 | 1 | eIF4H inh retest=77*;PABP polyA inh retest=52*
COc1ccccc1/C=N/NC(=O)c1ccc(Cn2nc([N+](=O)[O-])cc2C)cc1 | i | 16 | 3 | -2 | -8 | -6 | / | -3
Cc1ccc(SCCC(=O)Nc2cccnc2)cc1 | i | -5 | 7 | 1 | -6 | -3 | / | -9
Cn1c(SCC(=O)Nc2cccnc2Cl)nc2ccccc21 | / | -12 | 0 | 1 | / | / | -23 | 2
